2A Renilla: Primary qHTS Assay for Foot and Mouth Disease Virus Antivirals against NCGC Sytravon and CBC Compound Libraries: Renilla Luciferase Signal; AID 1745857, 2022; 0.32% of 120,000 active; Potency, µM (highest dose often 57.5 µM), without a hit: top-dose signal change, negative = less light; HEK cells with a luciferase reporter of 2A StopGo recoding; active means well fitted falling curve with a large enough effect; inconclusive means small, poorly fitted or top-dose-only effect; inactive means no such curve, though single readings can be large or run the other way; further: nearly all actives have a fitted effect of over 55% in size; overnight with compound
2A firefly: Primary qHTS Assay for Foot and Mouth Disease Virus Antivirals against NCGC Sytravon and CBC Compound Libraries: Firefly Luciferase Signal; HEK cells with a luciferase reporter of 2A StopGo recoding; Potency, µM (highest dose often 57.5 µM), inactives show at the highest dose signal change, negative = less light; 0.23% of 120,000 active; AID 1745856, 2022; active = well fitted falling curve with a large enough effect; inconclusive = small, poorly fitted or top-dose-only effect; inactive = no such curve, though single readings can be large or run the other way; further: nearly all actives have a fitted effect of over 60% in size; overnight with compound
Numbers without * were called inactive; ? = inconclusive; & = joins results of further samples; [ ] = dose if it differs, or a comment. On the % scale 0 is the no-effect control and ±100 the full control effect; potency means the concentration at half of the fitted maximal effect.

SMILES	2A Renilla	2A firefly
Cc1nc2nc(NC(=O)c3ccc(F)cc3)[nH]n2c(=O)c1Cc1ccccc1	-9%	-20%
O=C(O)CCCOc1cccc(Br)c1	5%	7%
Cc1cc(NC(=O)c2ccco2)cc(-c2nc3ccccc3o2)c1O	-15%&-5%	11%&8%
CCOC(=O)c1ccc(NC(=O)CN(c2cc(C(F)(F)F)ccc2Cl)S(C)(=O)=O)cc1	73%[activator]	-3%
COc1ccc(C(=O)Nc2ccccc2-c2nc3ccccc3s2)cc1OC	-13%	-4%
Cc1nc(N2CCCC(C(=O)Nc3cc(F)ccc3F)C2)c2c(C)c(C)oc2n1 (stereo not given)	14%	0%
O=C(CSc1nc2ccccc2o1)Nc1cccc2ccccc12	1%	93%[activator]
COc1ccc(NC(=O)c2ccc3c(c2)CCN3S(=O)(=O)c2ccc(C)cc2)cc1Cl	1%	-4%
CCC(CC)C(CNC(=O)c1ccc(Cl)cc1Cl)N1CCOCC1 (stereo not given)	-12%	-8%
CNc1nc2c(c(=O)n(C)c(=O)n2C)n1CCc1ccccc1	?	?
O=S(=O)(Cc1ccc(Cl)cc1)c1nc2ccccc2nc1N1CCCC1	-5%	1%
COc1cccc(CNS(=O)(=O)c2ccc3[nH]c4c(c3c2)CCCCC4)c1	105%[activator]	-34%
Cc1ccc(C(=O)NCC(O)c2ccc(C)cc2)cc1 (stereo not given)	16%	126%[activator]
CCCOc1ccc(C(=O)N2CCC(c3nc4ccccc4o3)CC2)cc1	2%	-13%
CN(C)C(CNC(=S)NC(C)(C)CC(C)(C)C)c1ccccc1 (stereo not given)	56%[activator]	-16%
COc1ccc(-c2nc3ccccc3n2Cc2ccccc2)cc1	-14%	5%
CCc1ccc(-c2nc(-c3ccc4c(c3)CC(=O)N4C)cs2)cc1	-9%	8%
COc1ccc(OCCn2c(C)nc3cc(C)c(C)cc32)cc1	5%&-10%	0%&9%
O=C(/C=C/c1ccccc1Cl)Nc1ccc(-c2ccccc2)cc1	5%	4%
Cc1ccc(-c2nc3cccnc3s2)cc1NC(=O)c1ccccc1Cl	2%	138%[activator]
COc1cc(C(=O)NCC(=O)OCC(=O)c2ccc3c(c2)CCC3)cc(OC)c1OC	-12%	-7%
CCOc1ccc(CCNC(=O)c2c(C)oc3ncnc(N4CCOCC4)c23)cc1	-7%	-22%
CCCOc1cc(C)c(S(=O)(=O)NC2CC(C)(C)NC(C)(C)C2)cc1C	61%[activator]	-6%
CCc1ccc(-n2nc3cc(C)c(NC(=O)c4ccccc4C)cc3n2)cc1	1%	84%[activator]
CCN(C(=O)CSc1nc2ccccc2n1Cc1cc(C)ccc1C)c1ccccc1	6%	19%
Cc1cccc(OCC(=O)NC2CCc3ccccc32)c1C (stereo not given)	77%[activator]	3%
O=C(Nc1cccc(Cl)c1)c1cnc2sc(N3CCCC3)nn2c1=O	2%	0%
COc1cc(C=O)cc(Cl)c1OCc1ccc(C(=O)O)cc1	-1%	10%
Cc1ccc(-c2nc(Cn3c(SCc4ccc(F)cc4)nc4cccnc43)c(C)o2)cc1	18%	2%
Cc1ccc(S(=O)(=O)Nc2ccc3[nH]c(C)cc3c2)cc1	154%[activator]	3%
CCC1=Nc2cc(C(=O)NCCN(CC)CC)ccc2Sc2ccccc21	-15%	-17%
CCc1ccc(OCC(=O)Nc2ncn[nH]2)c(Br)c1	-8%	-4%
COCCCNC(=O)C(=O)N1CCN(c2nc(C)c3c(c2C#N)CCCC3)CC1	12%	11%
Cc1ccc(-c2cc3nccc(-c4ccccc4O)n3n2)cc1	7%	103%[activator]
Cc1ccc(S(=O)(=O)N(CC(=O)NC(C(C)C)C(C)C)c2ccccc2C)cc1	105%[activator]	-17%
COc1ccccc1CNC(=O)c1ccc2nc(CCc3ccccc3)oc2c1	-18%	-25%
Cc1ccc(N2C(=O)c3[nH]nc(-c4ccc(Cl)cc4)c3C2c2ccc(F)cc2)cc1 (stereo not given)	?	?
Cc1noc(C)c1COc1ccc(CC(=O)Nc2nc(C3CC3)cs2)cc1	?	-13%
Cc1cc(NC(=O)CSc2nnc3c(Cl)cc(C(F)(F)F)cn23)no1	-6%	-2%
CCC(CO)NC(=O)c1nc(-c2cccc3[nH]ccc23)no1 (stereo not given)	38%[activator]	63%[activator]

Entries listed so far with a Cl atom (ten):
SMILES	2A Renilla	2A firefly
CCOC(=O)c1ccc(NC(=O)CN(c2cc(C(F)(F)F)ccc2Cl)S(C)(=O)=O)cc1	73%[activator]	-3%
COc1ccc(NC(=O)c2ccc3c(c2)CCN3S(=O)(=O)c2ccc(C)cc2)cc1Cl	1%	-4%
CCC(CC)C(CNC(=O)c1ccc(Cl)cc1Cl)N1CCOCC1 (stereo not given)	-12%	-8%
O=S(=O)(Cc1ccc(Cl)cc1)c1nc2ccccc2nc1N1CCCC1	-5%	1%
O=C(/C=C/c1ccccc1Cl)Nc1ccc(-c2ccccc2)cc1	5%	4%
Cc1ccc(-c2nc3cccnc3s2)cc1NC(=O)c1ccccc1Cl	2%	138%[activator]
O=C(Nc1cccc(Cl)c1)c1cnc2sc(N3CCCC3)nn2c1=O	2%	0%
COc1cc(C=O)cc(Cl)c1OCc1ccc(C(=O)O)cc1	-1%	10%
Cc1ccc(N2C(=O)c3[nH]nc(-c4ccc(Cl)cc4)c3C2c2ccc(F)cc2)cc1 (stereo not given)	?	?
Cc1cc(NC(=O)CSc2nnc3c(Cl)cc(C(F)(F)F)cn23)no1	-6%	-2%

Reformatted: 2 of the compounds above
Each structure is followed by: 2A Renilla, 2A firefly
- CCCOc1cc(C)c(S(=O)(=O)NC2CC(C)(C)NC(C)(C)C2)cc1C
    61%[activator], -6%
- COc1cc(C=O)cc(Cl)c1OCc1ccc(C(=O)O)cc1
    -1%, 10%

(more compounds)
SMILES	2A Renilla	2A firefly
COCc1ccc(C(=O)OCc2cc3ccccc3o2)cc1	4%	43%[activator]
CCOc1ccc(C(C)=O)cc1COC(=O)/C(=C\c1ccccc1)NC(C)=O	18%	-4%
Cc1nc2cc(F)ccc2cc1C(=O)N(C)CC(C)C	-6%	-2%
Cc1cccc(Oc2ccc(S(=O)(=O)N3CCCCC3)cc2NC(=O)c2cnc(C)cn2)c1	-6%	2%
O=C(/C=C/c1cccc2c1OCCCO2)c1cccnc1	5%	0%
COc1ccc(CCNC(=O)C2CCCN(S(C)(=O)=O)C2)cc1 (stereo not given)	18%	3%
Cc1cc(C(=O)N2CCN(c3cccc(Cl)c3)CC2)c2c(C)nn(-c3ccccc3Cl)c2n1	-10%	-40%
Cc1cc(S(=O)(=O)Nc2ccc(C(=O)O)cc2)c(C)c(S(=O)(=O)c2ccc(Cl)cc2)c1	49%[activator]	-12%
CCC(C(=O)Nc1cc(C)ccc1C)n1c(=O)c(C(F)(F)F)nc2ccccc21 (stereo not given)	-16%	-7%
Cc1ccc(CNC(=O)CCn2cnc3ccccc3c2=O)cc1	2%	-4%
COc1ccc(-c2nc(SCc3ccccc3)n(S(C)(=O)=O)n2)cc1	32%[activator]	165%[activator]
Cn1c2ccccc2c2c(C(=O)N3CCN(c4cccc(Cl)c4)CC3)cn(C3CCCCC3)c(=O)c21	-7%	-5%
CC(=O)N1CCCc2ccc(NC(=O)c3ccc(C(F)(F)F)cc3)cc21	1%	3.2µM*
CCc1c(C)nc2nncn2c1NCc1ccc(Cl)cc1	?	-40%
CC(N)Cc1c[nH]c2ccccc12 (stereo not given)	13%	9%
Cc1ccc2cc(CN(CC(C)C)C(=O)c3ccco3)c(=O)[nH]c2c1	0%	9%
Cc1ccc(C)c(S(=O)(=O)Nc2nc3ccccc3nc2Nc2ccccc2F)c1	-3%	-4%
C#Cc1cccc(NCC(=O)N2CCCCCCC2)c1	24%	174%[activator]
CC(NC(=O)CSc1nc2c(cc1C#N)CCCC2)c1ccccc1 (stereo not given)	-5%	-5%
CC(C)(C(=O)NC1CCCCCC1)c1ccccc1	14%	14%
Cc1ccc(C(=O)OCC(=O)Nc2cc(Cl)cc(Cl)c2)cc1	-19%	-11%
O=C(CCc1ncc(-c2ccc(F)cc2F)o1)NC1CCN(Cc2ccccc2)C1 (stereo not given)	1%	19%
CC(=O)c1ccc(N2C(=O)N(Cc3ccccc3C#N)c3ccccc3S2(=O)=O)cc1	135%[activator]	-1%
Cc1ccc2c(Cl)c(C(=O)Nc3ccc(S(=O)(=O)Nc4cc(C)nc(C)n4)cc3)sc2c1	3%	3%
CCOc1ccc(NC(=O)COC(=O)c2sc3ccccc3c2Cl)cc1	3%	21%
Cc1ccc(-c2cc(C(=O)Nc3ccccn3)c3ccccc3n2)cc1	11%	73%[activator]
O=C(C1CC1)N1CCc2cc(Br)cc(S(=O)(=O)Nc3ccc(F)c(F)c3)c21	-61%	?
Cc1ccc2c(Cn3nc(C)c(C)c(C#N)c3=O)cc(=O)oc2c1	7%	11%
CCCn1nnc(NCc2cccc(Cl)c2Cl)n1	23%	76%[activator]
COc1cccc2cc(C(=O)N3CCN(c4cc(C)ccc4C)CC3)c(=O)oc12	38%&12%[activator]	7%&0%
COc1ccc(-c2nc3c(c(=O)[nH]c(=O)n3Cc3ccccc3)n2CC2CCCO2)cc1 (stereo not given)	-9%	94%[activator]
Cc1ccc(/C=C(/C#N)c2nc(-c3ccncc3)cs2)cc1	23%	68%[activator]
Cc1cc(C)cc(NC(=O)Cn2nnc(-c3nc(-c4ccncc4)no3)c2N)c1	-10%	-4%
COc1ccc(-n2ccc(=O)c(C(=O)Nc3cc(OC)ccc3OC)n2)cc1	0%	0%
CC(=O)c1ccc(NC(=O)Cn2c(-n3nc(C)cc3C)nc(C)c(C)c2=O)cc1	-3%	-22%
Cc1cc(C)c2c(-n3cccc3)nn(CC(=O)Nc3cc(Cl)ccc3C)c2n1	9%	4%
S=C(NCc1ccc(Cl)cc1)Nc1cccc2ccccc12	167%[activator]	0%
CCOC(=O)C1CCN(c2ncnc3c2c(-c2ccccc2)cn3-c2ccc(Cl)cc2)CC1	-2%	-28%
Cc1ccc(S(=O)(=O)N2CCN(C(=O)CCc3ncc(-c4ccccc4F)o3)CC2)c(C)c1	0%	31%[activator]
O=C(Nc1ccc(Cl)cc1)c1n[nH]c(=O)c2ccccc12	2%	198%[activator]
NC(=O)c1ccc(NC(=O)c2ccc(Cl)c(S(=O)(=O)N3CCc4ccccc4C3)c2)cc1	52%[activator]	22%
N#Cc1ccccc1OCC(=O)Nc1ccc(-c2nc3ccccc3o2)cc1	-6%	64%[activator]
CC(C)CCNC(=O)c1ccc2c(c1)nc1n2CCCCC1	3%	-36%
COc1ccc(Cl)cc1NC(=O)c1c(NCc2ccc(C)o2)sc2c1CCCCC2	-27%	0%
COC(=O)C(C)n1nnc2sc(-c3ccccc3)cc2c1=O (stereo not given)	21%	85%[activator]
CCC12CN3CC(CC)(CN(C1)C3c1c[nH]c3ccccc13)C2=O (stereo not given)	-20%	-19%
COc1cccc(-c2nn3c(=O)cc(CN4CCN(S(=O)(=O)c5ccc(C)cc5)CC4)nc3s2)c1	-4%	-11%
Cc1ccc(OCC(=O)Nc2ccc3nc(Nc4cccc(Cl)c4)cc(C)c3c2)cc1	5%	-21%
COc1ccc(Cl)cc1CO/N=C/c1cccc(OC)c1OC	15%	18%
Brc1cccc(-c2noc(-c3cnccn3)n2)c1	-4%	184%[activator]
CCn1c(CNC(=O)c2ccc3c(c2)OCO3)nnc1SCC(=O)c1ccc(OC)cc1	-13%	-11%
CCCCCn1nc(C(=O)Nc2ncc(C)s2)c2ccccc2c1=O	6%	11%
O=C(Nc1ccccc1)N1CCN(C(=O)c2nsc3ccccc23)CC1	-4%&-13%	2%&1%
CC1=C(C)CC(C(=O)NC(C)C(C)(C)C)C(C(=O)O)C1 (stereo not given)	17%	0%
Cc1ccc(OCCOC(=O)Cn2cnc3c2c(=O)n(C)c(=O)n3C)cc1	5%	0%
COc1cccc(CNS(=O)(=O)c2ccc3c(c2)OCCO3)c1	77%[activator]	6%
Cc1ccc(-c2n[nH]c(=O)c3ccccc23)cc1S(=O)(=O)N(C)C1CCCCC1	53%[activator]	-22%
O=C(Nc1ccc(Oc2ccccc2)cc1)c1cccc(CN2CCCC2=O)c1	7.9µM*	?
CCOC(=O)COc1ccc2c(=O)c(Oc3ccc(C(=O)OC)cc3)c(C(F)(F)F)oc2c1	-3%	4%
C=CCNC(=O)NC(=O)CN(C)c1ccc2ccccc2c1	-8%	21%

Later entries
SMILES	2A Renilla	2A firefly
CCCNCc1ccc(-c2ccc(C(C)O)cc2)o1 (stereo not given)	-3%	-5%
COc1ccc(NC(=O)CSc2nncn3c2cc2oc(C)cc23)cc1OC	0%	-3%
Cc1ccccc1CNC(=O)c1cccc(CS(C)=O)c1 (stereo not given)	13%	0%
Cc1cc(C)cc(CS(=O)(=O)Cc2ccccc2)c1	-3%	2%
O=Cc1ccc(N2CCOCC2)cc1	-3%	16%
Cc1ccc(C(=O)OCC(=O)NCc2ccco2)cc1S(=O)(=O)Nc1cccc(Cl)c1	73%[activator]	8%
COc1ccc(C)cc1NC(=O)C1CCN(S(=O)(=O)c2ccc3[nH]c(=O)oc3c2)CC1	-4%	-12%
COc1cn(CC(=O)Nc2ccc(C(N)=O)cc2)c(CSc2ccccc2)cc1=O	-8%	1%
Cc1ccc(C)c(Nc2nn3c(=O)c4ccc(C(=O)NCCc5ccccc5)cc4nc3s2)c1	-1%	16%
O=C(/C(=C\c1cccc(Cl)c1)c1nc2ccccc2o1)c1ccccc1	?	-103%
CCc1ccccc1NC(=O)CN(c1ccc(C)c(C)c1)S(=O)(=O)c1ccsc1C(=O)OC	84%[activator]	-20%
CN(C)c1ccc(CNC(=O)CN2C(=O)CSc3ccc(S(=O)(=O)N4CCCC4)cc32)cc1	21%	-18%
CC(NC(=O)c1ccccc1I)C1CC2CCC1C2 (stereo not given)	8%	3%

Source: PubChem BioAssay

This is a subset; the hit share may differ from the screen's.
